# Screening results as filed in PubChem BioAssay.
# Calb FLC – C. albicans growth modulation with fluconazole | C. albicans CaCi-2 (fluconazole-resistant clinical isolate) + fluconazole, Alamar Blue growth, 48 h | growth inhibition, % (concentration not given with the values) | hit rate 0.57% among 300,000 | AID 1979;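 active = most replicates above 75%; inconclusive = exactly half above 75%; inactive = most below 75%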;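 also: all wells also contain fluconazole at 8 µg/ml as a sub-toxic cotreatment; 0% = median of DMSO wells and 100% = median of geldanamycin control wells; wells of about 8 µL received 7.5 nL stock; the first replicate is given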
# Ecoli rRNA inh – inhibitors of bacterial rRNA selective over humanized ribosomes | GFP signal change (wild-type ribosome), % (no concentration beside the values) | E. coli WT GFP vs humanized-ribosome RFP mutants, fluorescence, 24 h; stronger effect = lower value; DMSO median 0, no signal -100 | AID 720706 | hit rate 1.6% among 350,000;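 active = significant combined selectivity score with lowered wild-type GFP, culture density cut under 30%, mutant RFP and density less affected; inactive = any of these conditions unmet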; also: one replicate is shown; some compounds called inactive have numbers as strong as hits
# Beta apoptosis – beta cell apoptosis inhibition | INS-1E cytokine-induced death, ATP luminescence, 48 h; percent of positive-control rescue, neutral wells zero | protection from apoptosis, % (no concentration beside the values) | hit rate 0.8% among 300,000;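 active = all replicates at 75% or more, or half of them and the mean; inconclusive = half reach 75% but not the mean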;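 also: 0% = cytokine-treated negative control wells and 100% = positive control rescue; higher means more ATP so stronger rescue from cytokine killing; wells of about 40 µL received 100 nL stock; the first replicate is given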
# T cruzi repl – T. cruzi replication inhibition. T. cruzi beta-gal in NIH3T3, luminescence, 90 h. inhibition, % (concentration not given with the values). hit rate 1.4% among 300,000;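 active = mean inhibition across valid replicates above about 55%, limit read from the data; inconclusive = mean below that limit but half or more replicates reach it; inactive = mean below it, under half of replicates reach it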;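 also: signal also drops with host cell toxicity which is not excluded here; 0% = plate median of DMSO wells and 100% = zero luminescence signal; higher percent means less beta-gal luminescence so fewer parasites; stock transfer was 50 nL into about 50 µL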
# Bfl-1 A1 inh – inhibitors of the anti-apoptotic protein A1, read as caspase activation; AID 2462; MEF A1-2A-BIM cells, Caspase-Glo 3/7 luminescence, 3 h; percent of clofoctol response, vehicle zero; caspase activation, % (no concentration beside the values); hit rate 0.066% among 330,000;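 active = over half of replicate activation scores above 10%, or exactly half above 10 with the replicate mean above 10; inconclusive = replicate mean below 10 yet half the replicates above 10; inactive = over half of replicates below 10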;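 also: wells of about 30 µL received 50 nL stock; many hits fall short of the cut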
# LANA-H2B inh – blocks KSHV LANA binding to histone H2A/H2B | inhibition, % (no concentration beside the values) | hit rate 0.6% among 320,000 | cell-free LANA-H2A/H2B peptide, fluorescence polarization | AID 2629 | Q9QR71; in the data active = inhibition mostly above about 10%, no sharp cut-off; inactive = mostly below about 6.7%;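 also: stock transfer was 7.5 nL into about 10 µL; 0% = median of vehicle wells and 100% = median of positive control wells; one replicate is shown; the record names a cut of 25% in any replicate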
# Beta2AR agonist – activates human beta-2 adrenergic receptor causing internalization; P07550; Am2.2-beta2AR cells, FAP receptor internalization, flow cytometry; reference of the scale not given here; response, % (concentration not given with the values); hit rate 0.43% among 340,000;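 active = response above a set limit, near 3 SD of response in nonfluorescent compounds, cut at about 42% in these data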;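 also: stock transfer was 100 nL into about 11 µL; a reference agonist was the positive control; negative values mostly stem from fluorescent compounds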
# Target sequence (P07550 whole entry, looked up): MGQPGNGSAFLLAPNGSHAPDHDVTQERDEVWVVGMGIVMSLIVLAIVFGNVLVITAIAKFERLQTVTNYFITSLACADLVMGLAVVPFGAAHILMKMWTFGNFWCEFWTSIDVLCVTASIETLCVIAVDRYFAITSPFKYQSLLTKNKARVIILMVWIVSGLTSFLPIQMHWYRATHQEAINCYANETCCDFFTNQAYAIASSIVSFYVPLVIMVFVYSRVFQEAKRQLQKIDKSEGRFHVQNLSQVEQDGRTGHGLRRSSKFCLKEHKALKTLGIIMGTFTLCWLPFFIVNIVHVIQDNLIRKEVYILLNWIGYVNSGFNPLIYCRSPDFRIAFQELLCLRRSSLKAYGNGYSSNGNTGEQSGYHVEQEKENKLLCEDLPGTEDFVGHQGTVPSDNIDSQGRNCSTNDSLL
# ALR H2O2 inh – blocks human ALR sulfhydryl oxidase activity; P55789; purified ALR, DTT oxidation, H2O2 HRP-luminol luminescence; inhibition, % (test concentration not listed); hit rate 3.8% among 290,000;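 active = mean and each replicate at 75% or more; inconclusive = only one of the two met; inactive = neither met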;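 also: stock transfer was 7.5 nL into about 7.5 µL; 0% = neutral wells and 100% = wells with inactivated enzyme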
# Target sequence (P55789 whole entry, looked up): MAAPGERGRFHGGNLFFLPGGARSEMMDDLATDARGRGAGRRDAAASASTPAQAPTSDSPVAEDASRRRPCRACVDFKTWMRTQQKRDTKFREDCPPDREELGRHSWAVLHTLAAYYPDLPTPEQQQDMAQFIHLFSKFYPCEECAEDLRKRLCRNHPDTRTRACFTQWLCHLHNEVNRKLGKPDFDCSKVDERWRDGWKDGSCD
# Ecoli rRNA inh OD600 – further read-out of Ecoli rRNA inh, marked with its call; OD600 change, %; measured here: OD600 growth;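 optical density of the mix in the first replicate; 0 = DMSO median and -100 = no signal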
# Ecoli rRNA inh RFP – recorded beside Ecoli rRNA inh, whose call it bears; RFP signal change, %; measured here: RFP humanized mutant strains;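 first replicate; 0 = DMSO median and -100 = no signal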
# Numbers without * were called inactive; ? = inconclusive; . = no result given. Only part of the results is shown (hit frequency here may not be typical).
# Preview, two compounds:
SMILES,Calb FLC,Ecoli rRNA inh,Ecoli rRNA inh OD600,Ecoli rRNA inh RFP,Beta apoptosis,T cruzi repl,Bfl-1 A1 inh,LANA-H2B inh,Beta2AR agonist,ALR H2O2 inh
CC(CNCC1CCCO1)COc1cccc2ccccc12 (centres undefined),-1.2,.,.,.,-7.3,18.1,0.2,1.7,6.7,-41.3
COc1ccc2c(c1)C=C(CN1CCN(C3CCCC3)C(CCO)C1)CO2 (centres undefined),5.7,2.5,-7.5,-1.5,-1.7,58.1*,1.0,2.0,-0.3,21.4

# The whole of this part, from the first entry:
SMILES,Calb FLC,Ecoli rRNA inh,Ecoli rRNA inh OD600,Ecoli rRNA inh RFP,Beta apoptosis,T cruzi repl,Bfl-1 A1 inh,LANA-H2B inh,Beta2AR agonist,ALR H2O2 inh
CC(CNCC1CCCO1)COc1cccc2ccccc12 (centres undefined),-1.2,.,.,.,-7.3,18.1,0.2,1.7,6.7,-41.3
COc1ccc2c(c1)C=C(CN1CCN(C3CCCC3)C(CCO)C1)CO2 (centres undefined),5.7,2.5,-7.5,-1.5,-1.7,58.1*,1.0,2.0,-0.3,21.4
COc1cccc(OCC(=O)Nc2cc(Cl)ccc2Oc2ccccc2)c1,.,10.5,13.1,-1.2,12.6,50.8,0.5,3.2,-0.3,-1.3
CC(C)CC(=O)Nc1cccc(NC(=O)CC(C)C)n1,-1.3,.,.,.,-3.3,-6.0,0.3,-1.8,3.0,.
CC(C)Cn1c(-c2ccc(Br)cc2)c[nH]c1=S,-4.0,-22.8,-29.5,2.6,0.1,-6.0,-0.4,-2.8,-6.5,96.9*
CCOC(=O)c1nnn(-c2nonc2N)c1CN(C)Cc1ccccc1,-4.3,.,.,.,7.3,.,0.4,-4.5,8.4,-3.2
COc1ccccc1C(CNC(=O)C1CC(=O)N(Cc2ccccc2)C1)N1CCCC1 (centres undefined),.,.,.,.,-1.5,.,-0.1,2.1,7.1,-8.5
O=C(CO)N/N=C/c1ccc(Cl)cc1,-1.5,.,.,.,-6.5,-12.3,-0.6,2.1,-2.9,2.0
CCc1ccc(N2C(=O)Nc3ccccc3C2(O)C(=O)N2CCN(c3ccccn3)CC2)cc1 (centres undefined),28.2,-0.3,4.9,0.9,0.2,2.8,0.2,2.2,-13.9,25.4
CC1(C)O[C@@H]2C[C@H]3[C@@H]4C[C@H](F)C5=CC(=O)CC[C@]5(C)[C@H]4[C@@H](O)C[C@]3(C)[C@]2(C(=O)CO)O1,.,.,.,.,-17.9,.,0.7,-15.8,3.5,.
CC(=O)c1cccc(NC(=O)COc2ccccc2C(=O)c2cc(C#N)c(=O)n(C3CCCCC3)c2)c1,-5.1,.,.,.,4.8,9.9,0.1,0.2,-17.0,.
COc1ccc2nc(C)cc(SCC(NC(C)=O)C(=O)OC(C)C)c2c1 (centres undefined),11.6,-17.1,-16.2,-1.2,.,-17.5,0.5,2.1,1.6,.
CC(=O)c1ccc(S(=O)(=O)NCCCC(=O)NCCc2ccccn2)cc1,-2.2,.,.,.,-1.6,-10.8,0.0,0.5,-7.7,-20.3
COc1ccc(C2NC(=O)C(C#N)=C(S)N2c2cccc(C)c2)cc1OC (centres undefined),-4.6,-3.2,-1.3,-6.1,-10.0,-22.6,0.2,-4.9,1.6,23.7
COc1ccc(CCN2C(=O)NC(NC(C)=O)(C(F)(F)F)C2=O)cc1OC (centres undefined),-7.6,.,.,.,-8.9,0.5,0.0,11.2,2.7,1.4

# ALR H2O2 inh: entries above that show a hit
mol	Ecoli rRNA inh	Ecoli rRNA inh OD600	Ecoli rRNA inh RFP	LANA-H2B inh	Beta2AR agonist	ALR H2O2 inh
CC(C)Cn1c(-c2ccc(Br)cc2)c[nH]c1=S	-22.8	-29.5	2.6	-2.8	-6.5	96.9*

# Next compounds
SMILES,Calb FLC,Ecoli rRNA inh,Ecoli rRNA inh OD600,Ecoli rRNA inh RFP,Beta apoptosis,T cruzi repl,Bfl-1 A1 inh,LANA-H2B inh,Beta2AR agonist,ALR H2O2 inh
Cc1c(C(=O)NNC(=S)NCc2ccc(Cl)cc2)oc2ccccc12,3.8,-2.2,-11.6,1.2,5.1,-33.3,0.1,-5.5,-3.8,-6.4
Cc1cccc(S(=O)(=O)c2c(C)cc(C)nc2Cl)c1,18.9,8.4,-17.0,-2.1,-4.6,-5.9,0.5,4.4,6.8,-2.8
CSCCC(NC(=O)c1ccco1)C(=O)NCC1CCCO1 (centres undefined),.,2.0,5.6,-2.4,-2.6,.,0.3,-4.2,-1.1,-8.0
Oc1c(C=C2N=c3ccccc3=N2)sc(=S)n1C1CCCC1,-1.6,.,.,.,.,-8.3,-0.3,7.5,1.4,0.2
CC(C)CNC(=S)NC(=O)c1ccc(F)cc1,35.5,.,.,.,7.2,3.0,-0.2,-2.1,1.6,.
CC(C)Cn1c(CCC(=O)O)ccc1-c1cccs1,-16.7,.,.,.,-2.4,3.4,0.6,-0.4,-4.4,98.9*
COc1ccccc1N1CCN(CC(O)COc2c(OC)cccc2OC)CC1 (centres undefined),-34.8,.,.,.,-6.7,-4.2,-0.2,-2.2,0.4,-9.8
CCNC(=S)NNC(=O)c1csc(C)c1,4.5,16.3,11.4,-7.8,-3.1,-0.8,0.2,11.3,10.0,18.8
CC(C)(C)OC(=O)N1CCN(C(=O)c2cccnc2Cl)CC1,-1.8,1.9,5.4,0.6,7.2,-17.9,0.5,5.0,6.1,-13.0
O=C(Nc1ccc(S(=O)(=O)N2CCCCC2)cc1)C1CCCCC1,-4.6,-2.6,-19.9,-1.5,4.3,-11.2,0.3,-7.8,3.8,-11.9
COc1ccc(CNc2nc3c(c(=O)[nH]c(=O)n3C)n2Cc2ccccc2)cc1,0.9,11.2,9.4,-1.3,2.2,-4.1,-1.0,1.4,-2.0,-2.9
O=C(Cc1ccc(Cl)cc1)Nc1ccc(C(=O)N2CCOCC2)cc1,0.2,3.7,8.2,-0.5,-4.6,-4.1,0.7,-16.8,-1.7,-3.8
CC(=O)c1ccc(S(=O)(=O)N(C)CC(=O)Nc2ccc(C)cc2)cc1,.,21.3,15.4,0.7,-5.3,.,0.8,0.7,-8.7,-3.0
COc1ccc(N(C)S(=O)(=O)c2ccc3c(c2)oc(=O)n3C)cc1,-4.1,.,.,.,2.1,-40.1,0.1,-3.0,-0.4,12.0
COC(=O)C1CCN(S(=O)(=O)c2ccc(OC)cc2)CC1,-5.9,.,.,.,-2.9,-3.3,-0.1,3.5,4.0,-2.2
COc1ccccc1CNC(=O)CSc1ccc(C)cc1,5.1,-16.2*,-8.9*,-2.5*,-4.3,-5.5,-0.2,6.2,-3.0,-9.0
COc1ccc(NC(=O)CSc2nnc(Cc3cccn3C)n2CCc2ccccc2)cc1OC,7.3,.,.,.,-7.9,-2.1,-0.6,4.6,5.8,-4.5
O=C(Oc1ccccc1C(=O)Oc1ccccc1)c1ccco1,1.2,11.1,1.3,-4.2,-6.9,-16.8,0.4,-1.0,-5.0,2.8
CCOC(=O)C1CCN(C(c2cc3ccc(C)cc3[nH]c2=O)c2nnnn2C2CCCCC2)CC1 (centres undefined),12.7,.,.,.,.,12.4,-0.4,1.4,2.3,.
CCCC1=C(C(=O)OCC)C(c2ccccc2OCC)NC(=O)N1C (centres undefined),23.3,.,.,.,1.2,7.2,1.2,-2.0,-1.7,-0.7
O=C(CSc1ccc2ccccc2c1)NCCCN1CCCC1=O,-16.2,10.9,8.5,2.4,-4.8,-18.4,-0.1,-0.7,0.1,99.8*
Cc1nc(Oc2ccccc2)c2ccccc2n1,-7.2,.,.,.,-7.5,4.4,-0.6,1.3,2.6,-3.0
CCCc1cc(C(=O)Nc2cccc(Cl)c2)no1,3.2,-29.4,-73.9,-21.4,-3.6,11.3,.,-3.8,7.2,-2.0
Cc1ccc(Cn2ncc3c(N4CCN(C5CCCC5)CC4)ncnc32)cc1,-39.9,14.4,5.2,2.1,1.8,6.3,-1.5,0.9,-0.6,-2.7
CCNC(=O)c1c(NC(=O)C2COc3ccccc3O2)sc2c1CCCC2 (centres undefined),-2.9,.,.,.,5.9,20.3,-1.0,-2.4,1.8,0.4
COc1ccc(Cl)cc1NS(=O)(=O)c1cccc(C(=O)NCCCN2CCCC2=O)c1,-0.7,0.2,-5.8,0.5,-3.6,-2.8,0.6,0.9,1.8,1.1
O=C(N/N=C/c1ccc(O)c2ccccc12)c1cccnc1,11.5,-12.8,-15.2,6.3,1.3,-17.3,0.7,9.6,2.3,.
Cc1ccc(C)c(-n2cc[nH]c2=S)c1,-2.5,.,.,.,-0.7,2.2,-0.8,2.6,-5.0,35.1
O=Cc1cn(CC(=O)Nc2ccccc2)c2ccccc12,0.6,1.9,3.7,2.1,-7.0,3.5,-0.3,-0.9,1.7,-4.4
O=C(NNC1=C(C(=O)C(F)(F)F)CCC1)c1ccccc1O,?,.,.,.,15.8,14.7,-1.8,3.4,13.6,86.8*
COc1ccccc1-c1cc(C(=O)Nc2c(C)n(C)n(-c3ccccc3)c2=O)no1,-12.0,-4.7,-10.3,-4.0,-6.8,-5.7,0.3,-5.6,1.7,96.9*
O=C(CSc1ncnc2c1nnn2Cc1ccc(F)cc1)NC1CCCCC1,-34.4,-2.1,-8.4,-4.7,-19.9,78.8*,-2.1,-2.7,0.0,.
CC(=O)Nc1nc(N)n(-c2ccccc2)n1,-11.9,.,.,.,.,-11.1,-0.6,2.6,-2.3,-6.0
O=C(NCc1ccc(F)cc1)C1CCC(CNc2c(N3CCCCC3)c(=O)c2=O)CC1 (centres undefined),-5.2,3.2,4.9,-6.1,-8.1,0.8,0.7,1.0,-4.7,-7.1
O=C(NCCC1=CCCCC1)C1CCN(C(=O)Cc2ccccc2)CC1,4.0,-4.0,20.7,0.4,-7.8,-8.0,0.4,-2.7,-1.4,-10.6
O=C(NC1CCCC1)c1noc2c1CCCCC2,-14.0,.,.,.,-3.9,-8.7,-0.4,-0.4,-6.3,-4.1
CS(=O)(=O)N1CCN(C(=O)c2c(F)cccc2F)CC1,-7.7,.,.,.,2.8,-25.7,1.8,-0.8,0.5,-2.7
COc1cc(CNCc2ccccn2)ccc1OCc1ccc(Cl)c(Cl)c1,-15.6,-56.0,-79.9,-30.5,15.6,8.4,-0.5,0.0,4.8,-12.5
CC(Sc1nnc(NC2CCCCC2)s1)C(=O)N1CCOCC1 (centres undefined),-3.9,5.6,4.6,-1.5,1.1,-8.6,0.4,2.5,-14.6,-4.5

# Full records, quoted from the list. Values in the order: Calb FLC | Ecoli rRNA inh | Ecoli rRNA inh OD600 | Ecoli rRNA inh RFP | Beta apoptosis | T cruzi repl | Bfl-1 A1 inh | LANA-H2B inh | Beta2AR agonist | ALR H2O2 inh
# Shown for CC(=O)Nc1nc(N)n(-c2ccccc2)n1 → -11.9 | . | . | . | . | -11.1 | -0.6 | 2.6 | -2.3 | -6.0
# Shown for COc1ccccc1-c1cc(C(=O)Nc2c(C)n(C)n(-c3ccccc3)c2=O)no1 → -12.0 | -4.7 | -10.3 | -4.0 | -6.8 | -5.7 | 0.3 | -5.6 | 1.7 | 96.9*
